HCMV NEC inh – disrupts HCMV UL50-UL53 complex binding | HTRF UL50-UL53 interaction, normalized percent inhibition | inhibition, % (test concentration not listed) | hit rate 0.15% among 190,000 | AID 1918969;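 active means both replicates at 50% or more, plus weaker picks with an unusually low signal ratio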;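 further: stock transfer was 100 nL into about 20 µL; 0% = negative control wells and 100% = wells with untagged competitor protein; inactives centre near -12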
* marks the source's active call; other numbers are inactive results; & = joins results of further samples. Some of the compounds tested (hit frequency here may not be typical).

mol | HCMV NEC inh
COc1cccc(N(C(=O)c2ccccc2)C2C=CS(=O)(=O)C2)c1 (configuration not stated) | -10.5
COc1cc(C=CC(=O)O)ccc1O | 0.8
Cc1cc2cc(CNC(=O)Cc3ccccc3)ccc2n1C | 1.3
CN1c2cc3c(cc2N=C(c2ccc(C(=O)O)cc2)c2ccccc21)C(C)(C)CCC3(C)C | -172.9
CCOc1nc(-c2ccccc2)nc(Cl)c1N | -2.4
CCS(=O)c1nc2c(Br)cccc2[nH]1 (configuration not stated) | -0.6
CCSC1=C(C#N)C(c2cccc(Cl)c2Cl)C2=C(CCCC2=O)N1 (configuration not stated) | 4.3&2.9
C[N+]1(C)CCC[C@H]1C(=O)[O-] | -4.9
CCOC(=O)c1cnc(C(F)(F)F)nc1Sc1n[nH]c(-c2cccs2)n1 | -8.3
CCC(=O)NCCSc1c(-c2ccccc2)[nH]c2ccccc12 | -10.7

Pulled one by one from the entries so far (five):
mol | HCMV NEC inh
C[N+]1(C)CCC[C@H]1C(=O)[O-] | -4.9
CCSC1=C(C#N)C(c2cccc(Cl)c2Cl)C2=C(CCCC2=O)N1 (configuration not stated) | 4.3&2.9
COc1cc(C=CC(=O)O)ccc1O | 0.8
CCS(=O)c1nc2c(Br)cccc2[nH]1 (configuration not stated) | -0.6
CCOc1nc(-c2ccccc2)nc(Cl)c1N | -2.4

(listing goes on)
mol | HCMV NEC inh
CCCn1c(CC)nc2ccccc21 | -16.3
CCSc1nnc(-c2ccco2)n1N | -3.7
Fc1ccc(Cn2c(-c3ccco3)nc3ccccc32)cc1 | 6.4
Cc1cc(=O)[nH]c(SCC(=O)c2ccc(O)c(O)c2)c1C#N | -70.5
COCC(=O)NC(C)c1nc2ccccc2n1C (configuration not stated) | 11.1
O=C(CSc1nccn1-c1ccccc1)Nc1ccc(OC(F)(F)F)cc1 | -3.3
O=C(NCC1CCCO1)C1CCC1 (configuration not stated) | 10.2&0.2
COc1ccc(-c2nc(NC(=O)C3CC3)sc2C)cc1 | 6.6
CC(C)N(CCC#N)C(=S)Nc1ccc(Cl)cc1 | -9.6
Cc1ccccc1Oc1ccc(S(=O)(=O)N2CC(C)OC(C)C2)cc1 (configuration not stated) | 4.1
CCc1ccc(C=C2SC(=S)NC2=O)cc1 | -31.4
O=S(=O)(c1ccc(F)cc1)N1CCSC1c1ccccc1 (configuration not stated) | -14.4
CCC(=O)Nc1nc(C2CCCCC2)cs1 | 3.6
Cc1ccccc1NC(=O)CSc1nc2ccc(N)cc2s1 | -4.6
CCCc1ccc(OCC(O)CNC(C)(C)C)cc1 (configuration not stated) | -29.9
CCCCCC(=O)CC[C@@H]1[C@@H](C/C=C\CCCC(=O)OC(C)C)[C@@H](O)C[C@H]1O | -17.8&-17.8
O=C(c1c(Cl)cccc1Cl)n1nnc2ccccc21 | -4.6
CN(C)CCCCC(=O)Nc1ccc(NC(=S)NC(=O)c2ccc(C(C)(C)C)cc2)cc1 | 17.2&-9.2&-9.2
FC(F)(F)c1ccc(-c2nnc(-c3ccccn3)c(-c3ccccn3)n2)nc1 | -101.1
Oc1ccc(O)c(Sc2nnnn2-c2ccccc2)c1 | -7.3
CN(C(=O)COc1ccccc1)C1(C)CCS(=O)(=O)C1 (configuration not stated) | -1.8
Cc1ccc2nc(NC(=O)C(C)(C)C)sc2c1 | -6.8
CC1CCN=C(N)C1 (configuration not stated) | -9.2&-9.2
O=C(NC1CC(O)c2cc3c(cc21)OCO3)C(F)(F)F (configuration not stated) | -4.0
O=C(NC1CCN(Cc2ccccc2)CC1)c1ccc(I)cc1 | -1.5
CCCCC[C@H](O)/C=C/[C@@H]1[C@H]2C/C=C\CCCC(=O)O[C@H]2C[C@H]1O | 1.8&1.8
N#CC1=C(N)SC(N)=C(C#N)C1Cc1ccccc1 | -31.6
NC(=O)c1ccsc1NC(=O)c1ccc2c(c1)OCCO2 | 6.8
CC(=O)Nc1nc(-c2cc(Cl)sc2Cl)cs1 | 7.9
CCCCn1c(C(C)NC(=O)c2ccc(OC)c(OC)c2)nc2ccccc21 (configuration not stated) | -6.9
Cc1ccc(N2C(=O)CC(Sc3ccccc3C(=O)O)C2=O)c(C)c1 (configuration not stated) | 2.5
CCCCC[C@H](O)/C=C/[C@@H]1[C@H](C/C=C\CCCC(=O)NCCO)[C@@H](O)C[C@H]1O | -21.7&-21.7
O=C(O)CN(CCO)CCO | -21.2
C=CCn1c(-c2ccccc2)nc2ccccc21 | -11.1
CCOC(=O)N1CCN(C(c2ccncc2)c2c(C)[nH]c3ccccc23)CC1 (configuration not stated) | -0.6
O=C(Cc1cccs1)NCCn1ccc2ccccc21 | -2.8
COc1cccc(-c2cccc(N)n2)c1F | -13.4&-13.4
CCC(CC)C(=O)Nc1cc(C)c2c(=O)oc3ccccc3c2n1 | -9.9
CCCCCC(=O)CC[C@H]1C(=O)C=C[C@@H]1C/C=C\CCCC(=O)O | -35.3&-35.3
CC(Sc1nc2ccccc2[nH]1)C(=O)N/N=C/c1cc(Br)ccc1O (configuration not stated) | -16.5&-16.5
CC(C)CCC(=O)N(C)CCCC1CCCC1 | -12.0
COc1ccc(OC)c2[nH]c(=O)c(CCNC(=O)CC3CCCCC3)cc12 | -12.0
CSc1nnc(NC(=O)/C=C\c2ccc3c(c2)OCO3)s1 | -10.0
CC(C)Cc1noc(C2C3CCC4C(CCC32)C4(Cl)Cl)n1 (configuration not stated) | 3.2
Cc1cc2cc(CNC(=O)c3cccs3)ccc2[nH]1 | -2.7
CCC(=O)c1ccc(OC(=O)c2cc3cc(Br)ccc3oc2=O)cc1 | -2.7
CSc1nc(NC2CCCC2)c([N+](=O)[O-])c(NC2CCCC2)n1 | 6.8
Cc1cc2ccccc2n1CCNC(=O)Cc1ccccc1 | 13.4
NC1(C(F)(F)F)Oc2cc(Cl)c(Cl)cc2O1 | -7.9
CC/C(O)=C(\C#N)c1nc2ccccc2[nH]1 | 8.4

Further records.
mol | HCMV NEC inh
Cc1cc(CN(C)Cc2ccc(-c3nc(C)c(C)c(=O)[nH]3)cc2)ccn1 | -18.5
COc1ccc(NC(=O)CSc2c[nH]c3ccccc23)cc1 | -11.2
CCCC[n+]1c(C)csc1Nc1ccccc1 | -23.3
CCCCC[C@H](O)/C=C/[C@H]1C(=O)C[C@H](O)[C@@H]1CCCCCCCO | -13.2&-13.2
Cc1cc(C)c(S(=O)(=O)Cc2ccccc2)c(Cl)n1 | -11.7
COc1ccc(NC(=O)c2cccn(OCc3ccc(F)cc3)c2=O)cc1 | -4.4
Cc1nsc(NC(=O)NC2Cc3ccccc3C2)n1 | 36.6&36.6
N=c1oc2ccc(Cl)cc2cc1C(=O)Nc1ccc(F)cc1 | -20.8
CCN1CCN(C(c2cccs2)C(C)NS(C)(=O)=O)CC1 (configuration not stated) | -12.2
CC(NS(=O)(=O)c1ccccc1)C(c1cccs1)N1CCN(c2ccccc2)CC1 (configuration not stated) | 6.4
CC(=O)N(/C=C1\SC(=S)N(CC(F)(F)F)C1=O)c1ccccc1 | 8.5
O=S(=O)(NCCNC/C=C/c1ccc(Br)cc1)c1cccc2cnccc12 | -13.5&-8.7&-22.7
CC1CN(C(c2ccccc2)c2sc3ncnn3c2O)CC(C)O1 (configuration not stated) | -3.9
CC1COC2(CCN(c3nc(=O)c4cc(C(F)(F)F)cc([N+](=O)[O-])c4s3)CC2)O1 (configuration not stated) | -104.5
CCOC(=O)c1csc(NC(=O)c2ccccc2OC)n1 | -22.7
C=C(C)Cn1c(SCC(=O)O)nnc1-c1ccc(OC)cc1 | 1.7
Cc1cc(-c2cc3c(n(C)c2=O)CCN(Cc2c(C)nc4sccn24)C3)ccc1F | -13.9
Cc1ccc(CCC(=O)N(C)Cc2cnn(C(C)C)c2)cc1C | -19.8
O[C@H]1[C@H]2c3cc4c(cc3CN3CCC(=C[C@@H]1O)[C@H]23)OCO4 | -4.9
Cc1cc(Nc2nc(-c3ccccc3)nc3ccccc23)n[nH]1 | -24.1
OC1CSC(=S)N1Cc1ccco1 (configuration not stated) | -5.7
CC(C)OC(=O)C1=CN(C(=O)c2ccc(F)c(F)c2)CC(C)(C)c2c1[nH]c1ccccc21 | -58.6
COc1ccc(OC/C(N)=N/C(=S)Nc2ccc(Cl)cc2)cc1 | -3.4
Cc1sc(NC(=O)CSCC(=O)N2CCCCC2)nc1-c1ccccc1 | -10.9
Cc1ccsc1C(=CCCN1CCCC(C(=O)O)C1)c1sccc1C (configuration not stated) | -57.3
CCN1CCc2c(OCC(=O)N3CCCc4ccccc43)cccc2C1=O | -13.4
CSC1=NC(C)(C)C=C(C)N1 | -14.1
COc1ccc(NC(=O)Cn2nnc(C(=O)NCc3ccc4c(c3)OCO4)c2N)c(OC)c1 | 7.6
O=C(Nc1ccc2sccc2c1)c1ccco1 | 8.5
O=C(Nc1cccc(Nc2cc(Nc3cccc(C(F)(F)F)c3)ncn2)c1)C1CC1 | -10.1
O=S(=O)(NCCNCC=Cc1ccc(Br)cc1)c1cccc2cnccc12 | -19.5
COc1cccc2cc(CC(=O)O)oc12 | -11.4
Nc1ccc(Br)cc1C(NCC(=O)O)c1ccccc1 (configuration not stated) | -10.0
Cc1cc2ccccc2n1CCNS(=O)(=O)c1ccccc1 | -16.8
CC(C)C[C@@H](NC(=O)OCC1c2ccccc2-c2ccccc21)C(=O)O | -0.8
COc1ccc(CCN2C(=O)C=CC2=O)cc1OC | -11.4
COC(=O)c1ccc(CSc2nc(C)cc(C)n2)cc1 | 2.6
COC(=O)C1C(=O)NC(SCc2ccccc2Cl)=C(C#N)C1c1ccc(C)cc1 (configuration not stated) | 8.1
CCN1CCN(C(c2cccs2)C(C)NC(=O)c2ccc(N(C)C)cc2)CC1 (configuration not stated) | -4.0
CC(C)CN1CCN(Cc2ccco2)C(CCO)C1 (configuration not stated) | -4.6

Arranged by number of heavy atoms (largest number first): part of the list above.
mol | HCMV NEC inh
O=S(=O)(NCCNCC=Cc1ccc(Br)cc1)c1cccc2cnccc12 | -19.5
Cc1cc2ccccc2n1CCNS(=O)(=O)c1ccccc1 | -16.8
CC(C)CN1CCN(Cc2ccco2)C(CCO)C1 (configuration not stated) | -4.6

Next records follow.
mol | HCMV NEC inh
Cc1cc(N2CCC(Cn3cc(CN)nn3)CC2)nc(-c2ccccc2O)n1 | 4.1
COc1cccc(C(=O)Nc2cccc(-c3nc4ncccc4o3)c2)c1 | -11.2
CC(C)NC(=O)Nc1n[nH]c(Nc2ccc(Cl)cc2)n1 | -11.2
CC(NC(=O)CCn1c(=O)sc2ccccc21)c1ccccc1 (configuration not stated) | -0.5
CC(OC1OCCN(Cc2nn(P(=O)(O)O)c(=O)[nH]2)C1c1ccc(F)cc1)c1cc(C(F)(F)F)cc(C(F)(F)F)c1 (configuration not stated) | -6.4
CC(C)c1n[nH]c2c1CN(C(=O)C1CCCCCC1)CC2 | 5.6
CCOC(=O)COc1ccc2cc(-c3nc4ccccc4s3)c(=O)oc2c1 | -14.6
COc1ccc(/C=C/C(=O)Nc2sc3c(c2C(N)=O)CCCC3)cc1OC | -19.3
CC(C(=O)O)N1C(=O)/C(=C/c2cccc3ccccc23)SC1=S (configuration not stated) | -87.5
NS(=O)(=O)c1ccc(NC(=O)c2ccc(-c3nc4ccccc4s3)s2)cc1 | -6.7
Cc1ccc(S(=O)(=O)Nc2nc3ccccc3nc2Nc2ccc3nsnc3c2)cc1 | -8.6
O=S(=O)(c1ccc(-c2nc3ccccc3s2)cc1)N1CCOCC1 | -10.8
CNCc1ccccc1-c1cccs1 | -10.6
Cc1ccc2cc(CCNC(=O)CCC3CCCC3)c(=O)[nH]c2c1 | -16.5
CN1C(=O)/C(=C2\SC(=S)N(c3cccc(C(=O)O)c3)C2=O)c2ccccc21 | -9.3
COC(=O)c1ccc(C(=O)N=c2sc3cc(F)ccc3n2C)cc1 | -13.2
C[C@]12CC[C@H]3c4ccc(O)cc4CC[C@H]3[C@@H]1CCC2O (some centres not stated) | -8.8
O=C1OC(c2ccco2)=N/C1=C\c1ccc(Br)cc1 | -15.1
CCOc1cc(/C=N/S(=O)(=O)c2cccs2)cc(Br)c1O | -9.9&-14.3
Cc1ccccc1OCc1nc2ccccc2[nH]1 | -2.7
CC1(C)CCC[C@@]2(C)[C@H]3CC(=O)O[C@]3(C)CC[C@@H]12 | -0.6
O=S(=O)(c1ccc(Br)cc1)N1CCCC(C(F)(F)F)C1 (configuration not stated) | -8.9
NC(=S)c1ccc(N2CCC(C(F)(F)F)CC2)nc1 | -12.7
N#CC1=C(SCC(=O)Nc2ccccc2C(F)(F)F)NC2=C(C(=O)CCC2)C1c1ccco1 (configuration not stated) | -15.9
CCN(c1ccccc1)S(=O)(=O)c1ccc2c(c1)OCCO2 | -18.5
CCOc1ccc(C(=O)NCCSc2c[nH]c3ccccc23)cc1 | 9.3
O=C(O)c1sccc1S(=O)(=O)Nc1ccc(Cl)cc1 | -11.3
COC(=O)c1ccc(NCC(=O)c2ccc(OC)cc2)cc1 | 10.3
O=C(CSc1nncc2ccccc12)N1CCOCC1 | -1.1
CCCSc1nc(C)cc(C)c1C(N)=O | -18.4
O=C(O)c1cc2ccc(Br)cc2o1 | -5.5
CCCOc1ccc(-c2[nH]ncc2Oc2ccccc2)c(O)c1 | -14.8
C/C(=N\O)c1sc(-c2ccc(Cl)cc2)nc1C | -62.2
CCCCC[C@H](O)/C=C/[C@H]1[C@H](O)CC(=O)[C@@H]1C/C=C\CCCC(=O)OC | -23.4&-23.4
c1cnn(-c2ccc(N3CCC(N4CCC4)CC3)cc2)c1 | -7.3
CC(C)(C#N)NC(=O)C1Cc2ccccc2CN1S(=O)(=O)c1ccc(F)cc1 (configuration not stated) | -4.3
O=C([C@@H]1C[C@H](CN2CCOCC2)CN(Cc2ccc3ccccc3c2)C1)N1CCCC1 | -18.3
COc1cc(NC(=O)c2cnc(N)o2)cc(C(=O)Nc2cccc(C(F)(F)F)c2)c1 | -3.0
CCOc1ccc(-n2c(-c3ccccc3)csc2=NC(C)=O)cc1 | -4.0

Assay outcomes (PubChem BioAssay)
